2A firefly: FMDV 2A StopGo reporter, firefly signal; HEK cells with a luciferase reporter of 2A StopGo recoding; Potency, µM (doses to about 57.5 µM), for inactives: at the highest dose signal change, negative = less light; hit rate 0.23% among 120,000; AID 1745856; active = well fitted falling curve with a large enough effect; inconclusive = small, poorly fitted or top-dose-only effect; inactive = no such curve, though single readings can be large or run the other way; note: nearly all actives have a fitted effect of over 60% in size; overnight with compound
2A Renilla: FMDV 2A StopGo reporter, Renilla signal; hit rate 0.32% among 120,000; HEK cells with a luciferase reporter of 2A StopGo recoding; Potency, µM (highest dose often 57.5 µM), for inactives: at the highest dose signal change, negative = less light; AID 1745857; active means well fitted falling curve with a large enough effect; inconclusive means small, poorly fitted or top-dose-only effect; inactive means no such curve, though single readings can be large or run the other way; note: nearly all actives have a fitted effect of over 55% in size; overnight with compound
The depositor's hits bear a star; u = inconclusive; & = joins results of further samples; [ ] = dose if it differs, or a comment. % is set by controls: 0 for no effect and ±100 for the full control effect; potency is the fitted concentration of half-maximal effect.

SMILES	2A firefly	2A Renilla
O=C(CSc1nc2ncccc2c(=O)n1-c1ccccc1)NC(=O)NC1CC1	-8%	-5%
CC1(C)C2CCC1(C(=O)Nc1cccc(C(F)(F)F)c1)c1nc(C#N)c(C#N)nc12 (stereo not given)	u	u
CCn1c(-c2ccc(OC)c(O)c2)nc2c1c(=O)[nH]c(=O)n2Cc1ccccc1	2%	12%
CC(C)(CNC(=O)C1(c2ccccc2)CC1)C(N)=O	-1%	9%
COC(=O)C(CCSC)NC(=O)c1cc2c(n(-c3ccc(C)cc3)c1=O)CC(C)(C)CC2=O (stereo not given)	2%	6%
CC(=O)Nc1cccc(NC(=O)C2(Cc3nc4ccccc4s3)CCCC2)c1	-5%	12%
CCCn1cc(C(=O)NCC2CCCN2CC)c2ccccc21 (stereo not given)	-7%	-13%
CCC(C)N(CCCNC(=O)Cn1nc(Cc2cccnc2)c2ccccc2c1=O)Cc1ccco1 (stereo not given)	-10%	-4%
CCOC(=O)C1=C(C)N(C)C(=O)N(C)C1c1ccc(F)cc1F (stereo not given)	0%	-2%
Cc1ccc(NC(=O)Cn2c(=O)n(C)c(=O)c3sc(N4CCCC4)nc32)c(Cl)c1	-18%	-30%
CCn1nc(C(=O)N2CCN(S(=O)(=O)c3ccc(C(C)(C)C)cc3)CC2)c2ccccc2c1=O	-10%	-4%
Brc1cccc(CSc2nc3ncccc3o2)c1	179%[activator]	-8%
COc1ccc(OC)c(C2CC(=O)c3c([nH]c(C(=O)OCc4ccc(C)cc4)c3C)C2)c1 (stereo not given)	-20%	-4%
COC(=O)c1sc2ccccc2c1S(=O)(=O)Nc1cc(OC)ccc1OC	5%	238%[activator]
COc1cc(OC)c(NS(=O)(=O)c2c(C(=O)N3CCC(C)CC3)c(C)n(C)c2C)cc1Cl	-18%	87%[activator]
CCN1CCN(S(=O)(=O)c2ccc(NC(=O)CCc3ncc(-c4ccc(F)cc4)o3)cc2)CC1	25%	0%
Cc1ccc(NC2=C(c3ccc(C(F)(F)F)cc3)C(=O)c3ccccc32)cc1F	19%	-10%
CCCCCCOc1ccc(CNCc2cc(OC)c(OC)cc2OC)cc1	u	u
O=C(NC1CCCC1)C1CCN(c2ncnc3nc[nH]c23)CC1	4%	0%
COc1ccc(C2CC(=O)Nc3c2c(=O)nc2c(C)cccn32)cc1OC (stereo not given)	-5%	129%[activator]
O=C(COc1ccc(F)cc1Cl)N1CCN(C(=O)c2cccs2)CC1	4%	-7%
CC1CCN(C(c2ccccc2)c2sc3nc(-c4ccco4)nn3c2O)CC1 (stereo not given)	18%	189%[activator]
COc1ccc(N(C)C(=O)c2nn(-c3ccc(C)cc3)c(=O)n(C)c2=O)c(OC)c1	20%	25%
CCC(CO)Nc1nc(-c2ccco2)c2c(c1C#N)CCCC2 (stereo not given)	0%	-3%

Single records (already shown). Order of values: 2A firefly | 2A Renilla
`COc1ccc(N(C)C(=O)c2nn(-c3ccc(C)cc3)c(=O)n(C)c2=O)c(OC)c1` in the list: 20% | 25%
`COC(=O)c1sc2ccccc2c1S(=O)(=O)Nc1cc(OC)ccc1OC` in the list: 5% | 238%[activator]
`O=C(COc1ccc(F)cc1Cl)N1CCN(C(=O)c2cccs2)CC1` in the list: 4% | -7%
`Cc1ccc(NC2=C(c3ccc(C(F)(F)F)cc3)C(=O)c3ccccc32)cc1F` in the list: 19% | -10%
`COc1ccc(C2CC(=O)Nc3c2c(=O)nc2c(C)cccn32)cc1OC` (stereo not given) in the list: -5% | 129%[activator]

(list continues)
SMILES	2A firefly	2A Renilla
COc1ccc(CNC(=O)C(=O)NCC(c2ccc3c(c2)OCO3)N2CCOCC2)cc1 (stereo not given)	-21%	-12%
O=C(COc1ccc([N+](=O)[O-])cc1)Nc1nc2c(s1)CCCC2	5%	-5%
COc1cc(OC)c(Nc2nc3ccc(C(=O)c4ccccc4)cc3n3c(C)nnc23)cc1Cl	-3%	-3%
CCCCNC(=O)C[C@H]1C[C@@]2(C(=O)OC)C(=C[C@H](C3CCCC3)O[C@@H]2C)N(Cc2ccco2)C1=O	13%	117%[activator]
Cc1sc(NC(=O)c2nn(C)c(=O)c3ccccc23)nc1-c1ccc(F)cc1	24%	0%
COc1ccc(OC)c(/C=C/c2ccc3cccc(O)c3n2)c1	132%[activator]	0%
CCOC(=O)c1c(C)[nH]c(CCC(=O)Nc2ccc(N(CC)CC)cc2C)c1C	0%	-9%
Cc1ccc(C(=O)/C=C/Nc2ccc(N(C)C)cc2)cc1C	211%[activator]	21%
CC(=O)c1ccc(NC(=O)CCc2nc(-c3ccc(C)cc3)no2)cc1	u	u
CC(C)NC(=O)C1=CC(c2ccco2)=NS(=O)(=O)N1C	-2%	-3%
Cn1cnc2c1c(=O)n(CCCSc1nc3ccccc3[nH]1)c(=O)n2C	12%	8%
O=C(c1cnn(Cc2ccccc2)c1)N1CCN(S(=O)(=O)c2cccc(Br)c2)CC1	14%	3%
CCOc1ccc(NC(=O)CCc2nc3cccnc3n2Cc2ccc(OC)cc2)cc1	-10%	-7%
COc1ccc(OC)c(Nc2nc3ccccc3nc2NS(=O)(=O)c2ccc(C)cc2)c1	1%	35%[activator]
CC1CCc2c(sc(NC(=O)CSc3ncnc4ccccc34)c2C#N)C1 (stereo not given)	53%[activator]	-8%
CCOc1cc(C#N)ccc1OCc1nc(-c2ccc(Br)cc2)no1	6%	-6%
Cc1ccc(Cn2c(CN3CCC(C(=O)O)CC3)cc3ccccc32)cc1	-12%	u
COC(=O)C1=C(C)N(c2ccccc2)C(=S)NC1c1cccs1 (stereo not given)	1%	28%
O=C(CSc1nnc2[nH]c(=O)cc(-c3ccccc3)n12)Nc1ccc(F)cc1F	-12%	-7%
Cc1cccc(N2CC(C(=O)N(C)Cc3cnn(C)c3)CC2=O)c1C (stereo not given)	46%[activator]	38%[activator]
COc1ccc(Br)cc1-c1nc2cccc(C)c2c(=O)o1	8%	6%
COc1ccc(S(=O)(=O)N(CC(=O)N2CCC(C(N)=O)CC2)c2ccccc2)cc1OC	-3%	-2%
O=c1c2cnc(N3CCCCC3)nc2ccn1-c1ccc(F)cc1	0%	u
CC1(C)Cc2c(sc3c2c(=O)n(CCCO)c(=O)n3CC(=O)c2ccccc2)CO1	48%[activator]	26%
CCCCOC(=O)c1ccc(NC(=O)COC(=O)c2ccc3nc(C)c(C)nc3c2)cc1	137%[activator]	-10%
C=Cc1ccc(Cn2c(C(=O)O)c(CNC3CCCCC3)c3ccc(C)cc32)cc1	-6%	3%
CC(C)NC(=O)CN1C(=O)c2cccnc2Sc2ccccc21	-7%	9%
CCc1cc(CC)c2c(=O)c3ccccc3sc2c1	53%[activator]	14%
CCc1c(C(=O)Nc2ccc(F)cc2C)cnn1-c1ccc(OC)nn1	93%[activator]	4%
Cc1cc(-c2nc(-c3ccc(S(=O)(=O)N4CCOCC4)cc3)cs2)ccc1F	85%[activator]	1%
CCCCN(Cc1ccccc1)c1ccc(NS(=O)(=O)c2ccc(F)cc2)cc1C(=O)O	10%	36%[activator]
CC(C)(C)c1ccc(-c2nnc(-c3ccccc3NC(=O)c3ccc(F)cc3F)o2)cc1	25%	-9%
CCC1CCCCN1S(=O)(=O)c1ccc(NC(=O)c2cc(-c3ccc(OC)cc3)on2)cc1 (stereo not given)	19%	10%
Cc1ccc(NC(=O)c2cc(S(=O)(=O)N3CCc4ccccc43)ccc2F)cc1Cl	-21%	-12%
COc1ccc(C(=O)/C(=C/c2ccccn2)c2nc3ccccc3o2)cc1OC	u	u
COc1ccc(/C=C/C(=O)Nc2nc(-c3cccs3)ns2)cc1	-6%	-12%

An excerpt from above in order of length of the SMILES, high to low.
SMILES	2A firefly	2A Renilla
CCC1CCCCN1S(=O)(=O)c1ccc(NC(=O)c2cc(-c3ccc(OC)cc3)on2)cc1 (stereo not given)	19%	10%
CC(C)(C)c1ccc(-c2nnc(-c3ccccc3NC(=O)c3ccc(F)cc3F)o2)cc1	25%	-9%
CCCCOC(=O)c1ccc(NC(=O)COC(=O)c2ccc3nc(C)c(C)nc3c2)cc1	137%[activator]	-10%
C=Cc1ccc(Cn2c(C(=O)O)c(CNC3CCCCC3)c3ccc(C)cc32)cc1	-6%	3%
COc1ccc(/C=C/C(=O)Nc2nc(-c3cccs3)ns2)cc1	-6%	-12%

In a second layout: results already given
Below each compound: 2A firefly | 2A Renilla
Cc1cc(-c2nc(-c3ccc(S(=O)(=O)N4CCOCC4)cc3)cs2)ccc1F
  85%[activator] | 1%
CCCCN(Cc1ccccc1)c1ccc(NS(=O)(=O)c2ccc(F)cc2)cc1C(=O)O
  10% | 36%[activator]

Additional structures follow:
SMILES	2A firefly	2A Renilla
Cc1csc(NC(=O)c2csc3ccccc23)n1	177%[activator]	-10%
Cc1noc(Cn2c(=O)c3ccccc3n(CC(=O)Nc3ccc(C(C)C)cc3)c2=O)n1	-6%&-15%	10%&-10%
Cc1ccc(OCc2nc3c4c(ncn3n2)Oc2cc(O)ccc2C4c2ccccc2)cc1 (stereo not given)	-6%	-16%
CN(CCOc1ccc(Cl)cc1)Cc1nc2ccccc2c(=O)[nH]1	6%	2%
COc1ccc2c(c1)CC/C2=N\OC(=O)c1cc(Cl)ccc1SC	27%	2%
COc1ccc(NC(=O)c2cnc(Nc3ccc(C)c(Cl)c3)c3ccccc23)cc1OC	-20%	-9%
Cc1cc(C)n(CCc2nc3c4ccccc4nc(SCc4ccc(Cl)cc4)n3n2)n1	-19%	-12%
CCOC(=O)Cc1ccc(NC(=O)n2ncc3c(C)cccc32)cc1	u	-3%
CNc1snc(C)c1C(=O)N(C)CCOc1ccccc1	-3%	-3%
COc1ccc(Cc2nnc(Nc3cccc(Cl)c3)[nH]c2=O)cc1OC	9%	3%
CC(C)CCNC(=O)CCNC(=O)c1ccccc1	16%	6%
C=CCC(C#Cc1ccccc1)[N+](C)(C)CC=C (stereo not given)	17%	0%[1.06 µM]
O=c1[nH]cccc1NS(=O)(=O)c1ccc(F)c(F)c1	-1%	-2%
COc1ccc(OC)c(NC(=O)c2nc(S(=O)(=O)Cc3ccc(F)cc3)ncc2Cl)c1	u	u
Cc1ccc2c(CN3CCN(C(=O)c4c(F)cccc4F)CC3)cc(=O)oc2c1	-1%	2%
CCC(=O)Nc1ccccc1-c1nc2ccccc2n(CC(=O)Nc2ccccc2)c1=O	-5%	-1%
Cn1nc(C(=O)OCC(=O)c2ccc(C3CCCCC3)cc2)c2ccccc2c1=O	13%	4%
CCN(CC)c1nc2ccccc2nc1C(=O)Nc1ccc(Cl)cc1	23%	27%
O=C(NCc1ccc(-c2nc3ccccc3s2)o1)c1ccc(F)cc1F	10%	-25%
Cc1ccc(C)c(NC(=O)Cn2c(=O)n(Cc3ccc4c(c3)OCO4)c(=O)c3ccc(C(=O)NC4CCCCC4)cc32)c1	-1%	-1%
Cc1nc(C#N)c(NCC(c2cccs2)N2CCOCC2)o1 (stereo not given)	0%	-6%
CCOC(=O)N1CCN(S(=O)(=O)c2cc(OCC)ccc2OCC)CC1	6%	285%[activator]
O=S(=O)(NCC(c1ccco1)N1CCOCC1)c1ccc(Br)cc1 (stereo not given)	-12%	92%[activator]
CCC(C(=O)Nc1cccc(Cl)c1C)n1nc(-c2ccc(C)cc2)ccc1=O (stereo not given)	-1%	2%

Look-ups from the results shown:
Entry of Cc1cc(C)n(CCc2nc3c4ccccc4nc(SCc4ccc(Cl)cc4)n3n2)n1 under 2A Renilla: -12%
Entry of CCOC(=O)C1=C(C)N(C)C(=O)N(C)C1c1ccc(F)cc1F (stereo not given) under 2A Renilla: -2%

(listing goes on)
SMILES	2A firefly	2A Renilla
Cc1[nH]c2ccc(Cl)cc2c1C	0%	8%
O=S(=O)(Nc1nc2ccccc2nc1Nc1ccc(F)cc1)c1ccc(F)cc1	2.5µM*	3.5µM*
Cc1ccc(C)c(Cn2c(N3CCN(Cc4ccccc4C)CC3)nc3c2c(=O)[nH]c(=O)n3C)c1	9%	4%
CC(=O)Nc1ccc(S(=O)(=O)NCC2CCC(C(=O)NCc3ccccc3)CC2)cc1 (stereo not given)	-17%	2%
CCN(CC)c1nc(-c2ccc(C(C)(C)C)cc2)nc2ccccc12	105%[activator]	-7%
CCCn1c2ccccc2c2cnn(CC(=O)NCc3ccccc3Cl)c(=O)c21	0%	30%[activator]
CCNC(=S)Nc1ccc(C)cc1Br	177%[activator]	-13%[1.06 µM]
Cc1cc(C)cc(Nc2c3c(nc4ccccc24)CCC3)c1	u	u
COc1ccc(OC)c(S(=O)(=O)N2CCC(n3c(C)nc4cccnc43)CC2)c1	5%	26%
Cc1cc2oc(=O)cc(-c3cc4ccccc4o3)c2cc1C	8%	-7%
CN(Cc1ccc(F)cc1)C(=O)NCc1ccccn1	5%	11%
CCC(C)NC(=O)c1nn(-c2ccc(C)cc2)nc1CO (stereo not given)	13%	-3%
CSc1ccc(CCNC(=O)CCCn2c(=O)c3cccn3c3ccccc32)cc1	0%	18%
OCc1cccc(Nc2nc(-c3ccncc3)nc3ccccc23)c1	41%[activator]	31%[activator]
O=C(COC(=O)c1cccs1)c1ccc(OCc2ccccc2)cc1	180%[activator]	5%
O=C(CC1(O)C(=O)Nc2ccccc21)c1ccc(OC(F)F)cc1 (stereo not given)	17%	20%
COc1ccc(CNC(=O)CN(c2ccccc2OC)S(=O)(=O)c2ccc(C)cc2)cc1	-17%	74%[activator]
CC1=C(C(=O)Nc2cccc(C(F)(F)F)c2)C(c2ccc(C(F)(F)F)cc2)NC(=O)N1 (stereo not given)	-9%	-13%
COC(=O)c1ccc(COC(=O)CSc2cnc3ccccc3n2)cc1	0%	-3%
O=C(Nc1ccc(-n2cccn2)c(F)c1)C1CCCN1C(=O)c1ccco1 (stereo not given)	0%	-8%
